High-throughput results deposited in PubChem BioAssay by Johns Hopkins Ion Channel Center.
KCNQ2 block – KCNQ2 channel blockers in CHO-K1 cells – cell-based, FluxOR thallium flux, B-score, primary screen (AID 2156) | hit rate 1.1% among 310,000 | B-score at 10 µM | O88943 | 20 min; hits give low values; only compounds with negative scores are shown here; some inactives read as strong as hits;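 active = fluorescence ratio B-score at most minus 3 library SDs, with starting brightness B-score within 2 library SDs, cut at about -5.5 in these data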
Target sequence (O88943 whole entry, looked up): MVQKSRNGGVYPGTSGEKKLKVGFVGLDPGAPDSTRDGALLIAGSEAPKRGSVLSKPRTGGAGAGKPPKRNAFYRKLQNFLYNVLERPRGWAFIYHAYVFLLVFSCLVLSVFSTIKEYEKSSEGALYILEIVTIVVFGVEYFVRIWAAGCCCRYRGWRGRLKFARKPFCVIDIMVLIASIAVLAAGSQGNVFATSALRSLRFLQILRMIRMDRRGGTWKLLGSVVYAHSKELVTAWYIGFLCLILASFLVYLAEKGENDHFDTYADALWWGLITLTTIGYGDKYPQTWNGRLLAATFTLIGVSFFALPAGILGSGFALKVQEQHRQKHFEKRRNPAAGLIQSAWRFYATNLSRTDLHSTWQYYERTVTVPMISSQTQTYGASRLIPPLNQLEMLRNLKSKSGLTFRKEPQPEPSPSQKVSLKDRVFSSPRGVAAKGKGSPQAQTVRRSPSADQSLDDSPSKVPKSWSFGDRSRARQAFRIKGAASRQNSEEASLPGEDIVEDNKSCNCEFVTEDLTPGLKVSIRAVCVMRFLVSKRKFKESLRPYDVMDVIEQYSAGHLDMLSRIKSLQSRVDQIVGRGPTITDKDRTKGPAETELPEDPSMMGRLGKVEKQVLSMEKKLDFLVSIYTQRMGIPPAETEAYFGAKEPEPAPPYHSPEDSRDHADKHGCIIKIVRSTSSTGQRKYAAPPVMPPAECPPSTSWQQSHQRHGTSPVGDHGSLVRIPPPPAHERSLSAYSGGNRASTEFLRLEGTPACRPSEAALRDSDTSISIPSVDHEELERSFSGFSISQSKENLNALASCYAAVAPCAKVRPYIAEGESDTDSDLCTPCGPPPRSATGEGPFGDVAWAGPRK
KCNQ2 block baseline – also measured in KCNQ2 block; calls as there; B-score; measured here: initial fluorescence intensity artifact check;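 brightness before thallium and not channel activity; 0 = typical well and far values either way flag optical interference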
* = called active by the depositor; i = inactive. An excerpt; the hit share may differ from the screen's.

The first 2 entries as a preview:
No. | smiles | KCNQ2 block | KCNQ2 block baseline
1 | COc1cccc(C(=O)C2CN(c3ccccc3)CC2c2ccc(Cl)cc2)c1 (configuration not stated) | i | -0.05
2 | CCOC(=O)C1=C(COc2ccccc2)NC(=O)NC1c1ccc(Br)cc1 (configuration not stated) | i | 1.3

The list itself, from the start:
No. | smiles | KCNQ2 block | KCNQ2 block baseline
1 | COc1cccc(C(=O)C2CN(c3ccccc3)CC2c2ccc(Cl)cc2)c1 (configuration not stated) | i | -0.05
2 | CCOC(=O)C1=C(COc2ccccc2)NC(=O)NC1c1ccc(Br)cc1 (configuration not stated) | i | 1.3
3 | CCN(CCn1cccn1)C(=O)CC1C(=O)NCCN1CC1CCCCC1 (configuration not stated) | i | 5.2
4 | C=CCC1=C/C(=C\c2c(N)n3nc(CC(=O)N4CCCC4)sc3nc2=O)C=C(OC)C1=O | i | 5
5 | CC(=O)c1ccc(S(=O)(=O)N2Cc3ccccc3CC2C(=O)O)cc1 (configuration not stated) | i | 0.01
6 | CC(OC(=O)c1cc2sccc2n1C)C(=O)NCc1ccc2c(c1)OCO2 (configuration not stated) | i | 1.4
7 | O=C(CC1C(=O)NCCN1Cc1ccccc1C(F)(F)F)NCCN1CCCCC1=O (configuration not stated) | i | -0.43
8 | C=CCn1c(C)cc(C2=NNC(=NC(C)(C)C)SC2)c1C | i | 3
9 | O=C1/C(=C/c2ccco2)N=C(N2CCCCC2)N1c1ccccc1 | i | -0.2
10 | O=C(COC(=O)c1cc(Br)c(Br)s1)NCCC1=CCCCC1 | i | -0.81
11 | O=C(Nc1ccccc1)c1cc(S(=O)(=O)N2CCSCC2)ccc1Cl | i | 1.4
12 | N#C/C(=C/c1ccc(N2CCCCC2)o1)C(=O)Nc1ccc2ccccc2c1 | i | 28
13 | CC1(C)CC(=O)c2sc(NC(=O)CN3C(=O)CCC3=O)nc2C1 | i | 2
14 | Cc1ccc2c(c1)S/C(=C\c1cccc[n+]1C)N2CCO | i | 1.8
15 | O=C(NNC(=O)c1cccc2ccccc12)c1ccc(-c2ccccc2)cc1 | i | 0.68
16 | S=c1[nH]nc(COc2ccccc2)n1/N=C/c1c(Cl)cccc1Cl | i | 0.4
17 | CCN(C(=O)COC(=O)c1nn(-c2ccccc2)c(=O)c2ccccc12)C1CCS(=O)(=O)C1 (configuration not stated) | i | -1.3
18 | Cc1ccc(Cl)cc1N1CCN(C(CC(C)C)c2nnnn2CC2CCCO2)CC1 (configuration not stated) | i | -0.29
19 | CCCCNC(=O)CCn1ccc2cc(S(=O)(=O)N3CCCC3)ccc21 | i | 0.25
20 | CNC(=O)CS(=O)CC(=O)Nc1cc(OC(C)C)c(Cl)cc1Cl (configuration not stated) | i | 0.01

Another view of four compounds above.
Results follow in this order: KCNQ2 block	KCNQ2 block baseline
#17 CCN(C(=O)COC(=O)c1nn(-c2ccccc2)c(=O)c2ccccc12)C1CCS(=O)(=O)C1 (configuration not stated)
    i	-1.3
#18 Cc1ccc(Cl)cc1N1CCN(C(CC(C)C)c2nnnn2CC2CCCO2)CC1 (configuration not stated)
    i	-0.29
#19 CCCCNC(=O)CCn1ccc2cc(S(=O)(=O)N3CCCC3)ccc21
    i	0.25
#20 CNC(=O)CS(=O)CC(=O)Nc1cc(OC(C)C)c(Cl)cc1Cl (configuration not stated)
    i	0.01

The results go on:
No. | smiles | KCNQ2 block | KCNQ2 block baseline
21 | Cc1ccc(S(=O)(=O)Cn2nnnc2CN(Cc2ccco2)Cc2cccs2)cc1 | i | -1.4
22 | Cc1cc(NC(=O)C(C)C)ncc1NC(=O)c1ccco1 | i | -0.16
23 | O=C(COc1ccccc1Cl)Nc1ccc2c(c1)OCO2 | i | -0.34
24 | O=C(CCc1nc2cccnc2n1Cc1ccccc1)N1CCOCC1 | i | -0.28
25 | Cc1ccc(CNC(=O)CCc2c(C)nc3c(c(C)nn3-c3ccc(C)cc3)c2C)cc1 | i | -0.98
26 | CC(=O)c1sc(N)nc1C | i | 0.51
27 | COc1cccc(-n2c(-c3ccc4[nH]c(C)c(C)c4c3)n[nH]c2=S)c1 | i | 1.2
28 | COc1ccc(Br)cc1-c1nc2c(c(=O)[nH]c(=O)n2Cc2ccccc2)n1C | i | -0.87
29 | O=c1[nH]cnc(O)c1N=Nc1ccccc1 | i | 0.01
30 | COc1ccccc1CNC(c1ccccc1)c1ccccc1 | i | -2.5
31 | CN(C)C(=O)CSc1nnc(C23CC4CC(CC(C4)C2)C3)o1 | i | 2.1
32 | Cc1cc(NC(=O)CSc2cn(CCNC(=O)c3ccccc3)c3ccccc23)no1 | i | -0.9
33 | O=C(N/N=C/c1cc([N+](=O)[O-])cc(Br)c1O)C12CC3CCC(CC(C3)C1)C2 | i | 2.6
34 | COc1ccc(C(C)=O)cc1CSCc1cc(C(C)=O)ccc1OC | i | 0.98
35 | CCN1C(=O)c2ccccc2S(=O)(=O)c2ccc(C(=O)NCCCN(CC(C)C)CC(C)C)cc21 | i | -0.04
36 | Cc1ccc(S(=O)(=O)N2CCN(C(=O)COc3ccc(C)nc3[N+](=O)[O-])CC2)c(C)c1 | i | 0.97
37 | CC1(C)CC(=O)c2cc(OCC(=O)N3CCOCC3)ccc2O1 | i | -0.03
38 | Cc1cccc(-n2c3nc(=O)[nH]c(=O)c-3cc3cc([N+](=O)[O-])ccc32)c1 | i | 1.5
39 | O=C(COC(=O)CCN1C(=O)/C(=C\C=C\c2ccccc2)SC1=S)Nc1cc(F)ccc1F | i | -1
40 | COc1ccccc1C(=O)COC(=O)c1cc(=O)[nH]c2ccccc12 | i | 0.23
41 | COc1ccc(-n2c(SCC(N)=O)nc3nc4c(cc3c2=O)COC(C)(C)C4)cc1 | i | 0.54
42 | COc1ccc(NC(=O)CN2CCN(C3c4ccccc4-c4ccccc43)CC2)c(OC)c1 | i | -0.32
43 | COC(=O)c1cc2n(n1)CCCNC2=O | i | -0.89
44 | COCCNC(=S)NN=C1CCCCCC1 | i | 1.2
45 | COc1cc2nc(C3CCC3)nc(N3CCN(c4ccccc4OC)CC3)c2cc1OC | i | -0.38
46 | CCCc1cc2c(c(NC(C)=O)n1)c(=O)oc1ccccc12 | i | 2
47 | O=C1CC(c2cccc(Cl)c2)CC(O)=C1C=Nc1cccc(Cl)c1 (configuration not stated) | i | -0.21
48 | O=C(CSc1cccc[n+]1[O-])c1ccc(Cl)cc1 | i | -0.07
49 | Cc1nonc1NC(=O)CSc1nc2ccccc2[nH]1 | i | 1
50 | CC(C)(C)C(=O)CSc1nnc(Nc2ccccc2)s1 | i | 2.8
51 | O=C(/C=C/c1ccccc1)Nc1cc(C(=O)O)cc(C(=O)O)c1 | i | 2
52 | CC(C)Cc1nc(Cl)c(C#N)c2c1CCCC2 | i | 0.66
53 | O=C1c2ccccc2C(=O)N1Cc1nn2c(-c3ccc(Cl)cc3)nnc2s1 | i | 0.01
54 | COc1ccc(C(C)=O)cc1COC(=O)c1c(C)nn(-c2ccccc2)c1C | i | 0.14
55 | CC(C)c1ccc(NC2=NCC(=O)N2Cc2cccs2)cc1 | i | 1.4
56 | CC1(C)CC2(CCO1)N1CC3(C)CN2CC(C)(C1)C3O (configuration not stated) | i | 1.4
57 | CCOc1ccc(CCNC(=O)CCCn2nc(C)c3c(C)n(-c4ccccc4)nc3c2=O)cc1 | i | -0.68
58 | O=C(NCCCN1CCOCC1)C(=O)N/N=C/c1ccc2c(c1)OCO2 | i | 0.22
59 | COC(=O)C1=C(C)N(C)C(=S)NC1c1ccc(Cl)cc1 (configuration not stated) | i | 0.31
60 | CCn1c(C(=O)N2CCc3ccccc3C2)cc2oc3ccccc3c21 | -6.8* | 0.8*

Screen by screen, quoted from above:
KCNQ2 block, entries 46–52 → i, i, i, i, i, i, i

Other results
No. | smiles | KCNQ2 block | KCNQ2 block baseline
61 | CCN(CC(=O)Nc1cc(Cl)ccc1C)C(=O)c1ccc2c(=O)n3c(nc2c1)CCC3 | i | 0.52
62 | CC(=O)CSc1nc2ccccc2s1 | i | 1.8
63 | O=C1CC(c2ccco2)CC(O)=C1C=Nc1ccc(Br)cc1 (configuration not stated) | i | 1.7
64 | COc1ccccc1C(OC(=O)c1ccco1)C(=O)NCc1ccc(F)cc1 (configuration not stated) | i | 0.45
65 | NC(=O)CC(NC(=O)c1ccccc1)c1ccc(NCCc2ccc(Cl)cc2)c([N+](=O)[O-])c1 (configuration not stated) | i | -2
66 | CS(=O)(=O)NC1c2cccc3cccc(c23)C1N1CCOCC1 (configuration not stated) | i | 0.89
67 | Cc1ccc(C(=O)NCCCNC(=O)COc2ccccc2Cl)cn1 | i | -0.21
68 | O=[N+]([O-])c1ccc2nc(SCc3cn4cccnc4n3)[nH]c2c1 | i | 0.95
69 | Cc1cc(NC(=O)c2cc(-c3ccccn3)nc3ccc(Br)cc23)no1 | i | -0.72
70 | COc1ccc(N(Cc2ccccc2)S(=O)(=O)c2ccc(C)cc2)cc1 | i | 0.48
71 | CNC(=O)C1CC(=O)N(c2ccc(F)c(Cl)c2)C1 (configuration not stated) | i | 2.1
72 | COC(=O)/C(=N\Nc1ccc(Cl)cc1)Sc1nnc(-c2ccc(OC)cc2)n1C | i | 0.22
73 | CCCN(c1ccc(C(C)C)cc1)S(=O)(=O)c1c(C)[nH]c(=O)[nH]c1=O | i | 0.88
74 | COc1ccc(Cn2c(=O)[nH]c3cc(C(=O)N4CCN(c5ccc(OC)cc5)CC4)ccc3c2=O)cc1 | i | -1.6
75 | O=C(Nc1cc(C(F)(F)F)ccc1N1CCCC1)c1cccnc1 | i | 0.35
76 | COc1nc(Cc2ccc(Cl)cc2)nc2ccccc12 | i | 1.5
77 | Cc1ccc(CN2CCN(/N=C/c3cccnc3)CC2)c(C)c1 | i | 2.3
78 | Cc1cc(C)n(CCC(=O)N=Nc2c(O)[nH]c3ccc(Br)cc23)n1 | i | -2.7
79 | O=C(Cn1c2c(c(=O)n3ncnc13)CCC2)N/N=C/c1ccc(Cl)cc1 | i | 0.03
80 | CCOc1ccc(-c2nnn(CC(=O)Nc3cccc(OC)c3)n2)cc1OCC | i | -0.05
81 | COc1ccc(/C=C(\C#N)C(=O)Nc2ccc3[nH]c(=O)[nH]c3c2)cc1 | i | 0.3
82 | C/C(=N\NC(=O)c1cccc2ccccc12)c1cccs1 | i | 1.2
83 | CCn1cnc2c1c(=O)n(CC(=O)Nc1ccc3c(c1)OC(F)(F)O3)c(=O)n2Cc1ccccc1 | i | 0.4
84 | Cc1nc(C)n(CC(O)COc2ccc3ccccc3c2)n1 (configuration not stated) | i | 0.52
85 | CCCOC(=O)c1ccc(Oc2cn[nH]c2-c2ccc(OC)cc2O)cc1 | i | 0.72
86 | COc1cccc(CN2CCC(C(=O)N3CCN(Cc4ccc5c(c4)OCO5)CC3)CC2)c1OC | i | 1.6
87 | O=C(c1ccccc1)c1cccn1CC(=O)N1CCc2ccccc2C1 | i | -0.06
88 | O=C(COC(=O)C1(c2ccccc2F)CCCC1)NC1CCS(=O)(=O)C1 (configuration not stated) | i | -1.6
89 | COc1ccc(/C=N/NC(=O)CC(=O)NC2CCCCC2)cc1 | i | -0.68
90 | Cc1cccc(-c2nc(N)nc(N)n2)c1 | i | 1.2
91 | COc1ccc(NC(=O)C2CCCN(c3nn4c(=O)cc(C)nc4s3)C2)c(OC)c1 (configuration not stated) | i | 2.5
92 | CN(C)CCCN(Cc1cc2cc3c(cc2[nH]c1=O)OCO3)C(=S)Nc1cccc(Cl)c1 | i | -0.06
93 | CC(Oc1ccc(Cl)cc1Cl)C(=O)NCCCN1CCOCC1 (configuration not stated) | i | 0.01
94 | O=C(C(c1ccccc1)c1ccccc1)N1CCC(c2nc(-c3ccccc3Cl)no2)CC1 | i | 0.38
95 | O=C(COc1ccccc1)Nc1nc2cc3c(cc2s1)OCO3 | i | 0.71
96 | COC(=O)c1cccc(C23CC4(C2)[C@H](CN(Cc2ccc(-c5ccccc5)cc2)[C@@H]4c2ccccc2)C3c2ccccc2)c1 (some centres not stated) | i | 0.88
97 | O=C(NCc1ccccn1)Nc1ccc(Br)cc1Cl | i | 1
98 | CCOC(=O)c1cnn(C)c1NC(=O)c1ccc(Cl)cc1Cl | i | 2.3
99 | COc1ccc(CCC(=O)c2ccc(OC)cc2)cc1 | i | -1.2
100 | O=C(Nc1ccc([N+](=O)[O-])cc1)Nc1cnccn1 | i | 1.4
101 | CC(=O)c1c(C)[nH]c(C(=O)CSc2nnc(C3CCCCC3)n2N)c1C | i | 0.04
102 | CC(C)(C)[C@H]1CCC(=O)N([C@H](CC#N)Cc2ccccc2)CC1 | i | -0.68
103 | O=C(Nc1ccccc1C(=O)O)c1ccc(NC(=O)C2CC2)cc1 | i | 0.98
104 | CC(C)C(=O)NCCc1c[nH]c2ccccc12 | i | 0.67
105 | O=C1/C(=C\c2ccc([N+](=O)[O-])cc2)CCc2ccccc21 | i | -0.43
106 | COc1cc2c3c(c1)-c1c(sn(-c4cc(OC)ccc4OC)c1=S)C(C)(C)N3C(=O)C2=O | i | 0.67
107 | COc1ccc(CNC(=O)CSc2nc3c(oc4ccccc43)c(=O)n2CC2CCCO2)cc1 (configuration not stated) | i | 0.95
108 | Cc1cccn2c(=O)c3cc(C#N)c(=NC(=O)c4ccncc4)n(CCCOC(C)C)c3nc12 | i | 3.3
109 | COc1cc(/C=C2\SC(N)=NC2=O)ccc1O | i | 0.18
110 | Cc1nc2ccc(NS(=O)(=O)c3ccc4c(c3)OCCO4)cc2s1 | i | -1.4
111 | COC(=O)c1ccccc1NC(=O)c1cccc(COc2ccccc2Cl)c1 | i | -0.75
112 | O=C(Nc1ccc(Cl)c(Cl)c1)OCCNC(=O)c1ccncc1 | i | 1.3
113 | Cc1cccc(NC(=O)c2cc(-c3cc(C)c(C)cc3O)n[nH]2)c1 | i | -1.5
114 | CSc1nc(C)c(C(=O)C[n+]2ccccc2C)cc1C#N | i | 0.11
115 | CCOC(=O)c1sc(NC(=S)NC(=O)C23CC4CC(CC(C4)C2)C3)cc1C | i | 2.1
116 | C=C(C)C1CC=C(C)/C(=N/NC(=O)c2ccc(NC(=O)CCC)cc2)C1 (configuration not stated) | i | -0.6
117 | O=C(COC(=O)c1ccccc1O)NCCCc1ccccc1 | i | -1
118 | CCc1ccc(CN(C)Cc2nc(-c3cccc(Cl)c3)no2)nc1 | i | -1.1
